LASV entry inh – inhibitors of Lassa virus binding or cell entry | 300,000 tested, 1.2% active | Lassa virus pseudotype entry inhibition, cell reporter; control for the full effect not named in the record | Potency, µM (doses to about 37.9 µM), for inactives: at the highest dose activity change, negative = inhibition, most hits filed as inhibitors; active means well fitted inhibition curve with a large enough effect; inconclusive means small, poorly fitted or top-dose-only effect, or effect the other way; inactive means flat fitted curve, though single readings scatter; tested in HEK293 cells; also: % is scaled to controls: 0 for no effect and ±100 for the full control effect; nearly all actives have a fitted effect of over 50% in size; luciferase read-out
SARS PLpro yeast – SARS-CoV PLP inhibition in yeast; AID 485353; Potency, µM (top dose mostly 32.9 µM), without a hit: at the top dose activity, positive = growth rescue; S. cerevisiae expressing SARS-CoV PLpro, growth rescue; control for the full effect not named in the record; 330,000 tested, 0.19% active; also: 0% is about no effect; nearly all actives have a fitted effect of over 55% in size; growth read by luminescence after 48 h
Cruzain Triton – blocks cruzain activity in presence of Triton detergent; AID 1478; purified cruzain, Z-FR-AMC fluorescence, 0.01% Triton; 200,000 tested, 0.43% active; Potency, µM, without a hit: max response, negative = inhibition, usual class: inhibitors; P25779; active = well fitted curve in the direction sought with a large enough effect; inconclusive = small, poorly fitted or top-dose-only effect, or another doubt; inactive = no such curve, though single readings can be large; an effect the other way counts as inactive or inconclusive;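 also: plate controls were neutral wells for no effect and buffer without enzyme for full effect; nearly all actives have a fitted effect of over 40% in size; top concentration of the series not given in the record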
Target sequence (P25779 123-467 limits assumed): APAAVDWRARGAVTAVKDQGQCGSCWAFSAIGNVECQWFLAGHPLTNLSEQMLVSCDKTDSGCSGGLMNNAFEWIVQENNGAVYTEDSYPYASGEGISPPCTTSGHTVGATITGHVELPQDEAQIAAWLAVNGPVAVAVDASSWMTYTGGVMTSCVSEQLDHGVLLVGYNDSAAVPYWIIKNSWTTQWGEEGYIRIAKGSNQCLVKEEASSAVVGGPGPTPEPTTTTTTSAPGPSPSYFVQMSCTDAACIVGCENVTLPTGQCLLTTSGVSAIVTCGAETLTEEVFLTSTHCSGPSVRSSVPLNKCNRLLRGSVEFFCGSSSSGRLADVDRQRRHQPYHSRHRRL
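Cruzain (1.5 nM) preincubated 15 min at RT with compound in 100 mM sodium acetate pH 5.5, 5 mM DTT, 0.01% Triton X-100. Reaction started with 2 uM Z-FR-AMC; AMC fluorescence (ex 360/em 450 nm) change over 60 s gave rate.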
RE007 growth inh – less growth of the S. pombe RE007 Vpr strain; S. pombe RE007 Vpr strain, BacTiter-Glo ATP luminescence, 24 h; control for the full effect not named in the record; Potency, µM (series often up to 92.2 µM), without a hit: at the top dose activity change, negative = less growth; 360,000 tested, 0.21% active; active = well fitted falling curve with a large enough effect; inconclusive = small, poorly fitted or top-dose-only effect; inactive = no such curve, though single readings can be large or run the other way;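 also: % is scaled to controls: 0 for no effect and ±100 for the full control effect; nearly all actives have a fitted effect of over 50% in size; the assay follows cell death caused by Vpr and the record does not say whether a fall means rescue or toxicity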
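Fission yeast RE007 carrying one integrated HIV-1 vpr copy, seeded at OD 0.01 in PMG+AL medium with 23 nL pinned compound. Grown 24 h at 30 degrees; viability read by BacTiter-Glo luminescence after 5 min.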
Marburg entry inh – Marburg virus entry inhibition; Potency, µM (doses to about 37.8 µM), for inactives: at the highest dose activity change, negative = inhibition, usual class: inhibitors; AID 540276; Marburg virus pseudotyped entry inhibition, cell reporter; control for the full effect not named in the record; about a third of the inactives were read at about 46 µM; 300,000 tested, 1.8% active; active = well fitted inhibition curve with a large enough effect; inconclusive = small, poorly fitted or top-dose-only effect, or effect the other way; inactive = flat fitted curve, though single readings scatter; tested in HEK293 cells; about a fifth of its hits are not listed in these tables; also: % is scaled to controls: 0 for no effect and ±100 for the full control effect; luciferase read-out
Cruzain noTriton – blocks cruzain activity in detergent-free assay; P25779; purified cruzain, Z-FR-AMC fluorescence, no detergent; Potency, µM, for the others: max response, negative = inhibition, usual class: inhibitors; 200,000 tested, 2.3% active; active = well fitted curve in the direction sought with a large enough effect; inconclusive = small, poorly fitted or top-dose-only effect, or another doubt; inactive = no such curve, though single readings can be large; an effect the other way counts as inactive or inconclusive;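 also: plate controls were enzyme without inhibitor for no effect and buffer without enzyme for full effect; nearly all actives have a fitted effect of over 40% in size; top concentration of the series not given in the record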
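Purified cruzain at 1.5 nM, pre-incubated 15 min with compound at room temperature in 100 mM sodium acetate pH 5.5, 5 mM DTT, 0.00005% Triton X-100. Reaction started with 2 uM Z-FR-AMC; AMC fluorescence increase over 60 s gives rate.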
StopGo reporter – lowers the luciferase signal of an FMDV 2A StopGo reporter; human cells with a luciferase reporter of 2A StopGo recoding; control for the full effect not named in the record; Potency, µM (top dose mostly 57.9 µM), for the others: at the highest dose signal change, negative = less light; 410,000 tested, 1.2% active; AID 1159524; active = well fitted falling curve with a large enough effect; inconclusive = small, poorly fitted or top-dose-only effect; inactive = no such curve, though single readings can be large or run the other way; tested in HEK293T cells; also: % is scaled to controls: 0 for no effect and ±100 for the full control effect; nearly all actives have a fitted effect of over 45% in size; luciferase light after 4 h
NS1 function inh – blocks influenza NS1 protein function; S. cerevisiae slowed by influenza A NS1, growth recovery by OD600; Potency, µM (top dose mostly 46.1 µM), for inactives: at the top dose activity, positive = more growth; 270,000 tested, 0.4% active; AID 2326; also: actives are rising curves; nearly all actives have a fitted effect of over 50% in size
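S. cerevisiae expressing influenza A NS1, grown in glucose, washed, then diluted 1:100 into pH 6.0 -URA galactose medium with 23 nl compound. Growth recovery read as OD600; NS1-free strain serves as control.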
Numbers without * were called inactive; ? = inconclusive; nt = not tested or not shown; & = joins results of further samples; [ ] = another dose, or the depositor's remark. Unless noted, calls follow the shape of the dose curve; as a rule, active means well fitted rising curve with a large enough effect; inconclusive means small, poorly fitted or top-dose-only effect; inactive means no such curve, though single readings can be large or run the other way. Potency is read from the fitted curve at half-maximal effect.

Fields – Marburg entry inh, LASV entry inh, Cruzain Triton, NS1 function inh, SARS PLpro yeast, RE007 growth inh, StopGo reporter, Cruzain noTriton
COc1cc(CN2CCNC(=O)C2CC(=O)N(C)Cc2ncc[nH]2)cc(OC)c1 (configuration not stated)
→ 8.8%[46.1 µM], -2.4%, nt, -4.6%, 0.0%, -12.5%, 5.7%, nt
O=C(CNC(=O)C1COc2ccccc2O1)N/N=C/c1ccc([N+](=O)[O-])cc1 (configuration not stated)
→ 2.9%[46.1 µM], 14.2%, nt, 2.0%, 0.5%, 4.5%, -18.3%, nt
Cc1ccc(S(=O)(=O)N(C)CCCC(=O)N2CCN(C=O)CC2)cc1
→ -5.1%, 4.8%, 6.3%, 4.1%, -0.5%, 12.6%, -6.2%, 10.6%
CCCCCn1c(=O)[nH]c2cc(C(=O)NCc3ccccn3)ccc2c1=O
→ 4.4%[46.1 µM], 26.7%[46.1 µM], nt, nt, 1.0%, -0.4%, -26.4%, nt
Cc1cc(Cl)c(S(=O)(=O)NCc2ccncc2)cc1OCC(N)=O
→ -2.4%[46.1 µM], 3.9%, 3.8%, 4.2%, 4.4%, 10.1%, 5.5%, -5.0%
CC(C)CNc1cc(Cl)c(S(=O)(=O)NCC(C)C)cc1C(=O)O
→ -1.9%, 7.9%, 0.9%, -3.8%, 5.9%, -9.4%, 3.6%, -4.7%
CC(C)CN(CC(C)C)S(=O)(=O)N1CCC(C(=O)NCCc2ccc(Cl)cc2)CC1
→ ?, ?, -2.6%, -2.7%, 2.0%, 7.5%, nt, ?
CCCCN1C(=S)NC[C@@H]1c1ccccc1
→ nt, nt, nt, 3.0%, 3.1%, 4.1%, 10.8%, nt
Cc1cc(C)n(Cc2nc3ccccc3n2C)n1
→ -2.8%, ?, 5.0%, -3.4%, 1.0%, 6.5%, 7.2%, -2.6%
CCn1c2ccccc2c2cc(CN3CCN(Cc4ccccc4Cl)CC3)ccc21
→ nt, -16.7%[46.1 µM], 5.3%, nt, nt, nt, -19.7%, 10.3%
CSc1ccc(-c2nnn(CC(=O)NCc3ccccc3)n2)cc1
→ ?, ?, -6.4%, 7.5%, -4.1%, 8.1%, -17.1%, -21.4%
CC1Cc2cc(/C(O)=C3/C(=O)C(=O)N(CCCn4ccnc4)C3c3cccnc3)ccc2O1 (configuration not stated)
→ ?, -27.9%, -1.4%, -2.8%, 3.1%, 8.4%, 12.4%, -6.2%
COc1c(C)cc(C(=O)C2CCCN(C(=O)c3cccc(-n4cccn4)c3)C2)cc1C (configuration not stated)
→ -3.8%[46.1 µM], ?, nt, -0.9%, 0.9%, -3.7%, 0.2%, nt
Cc1ccc(NC(=O)CSc2nc(NS(=O)(=O)c3ccc(C)cc3)cc(=O)[nH]2)cc1
→ ?, -17.5%, -1.3%, 3.8%, -3.7%, -6.7%, -7.8%, -26.2%
Cc1ccc(SCC(=O)Nc2ccc(S(=O)(=O)Nc3ncccn3)cc2)cc1
→ ?, 5.7%, nt, 0.8%, -0.4%, -1.7%, -9.0%, nt
CCOC(=O)CN(C(=O)CSc1nnc(-c2cccc(OC)c2)o1)c1ccc(F)cc1
→ 6.5%, ?, 1.5%, -88.1%, ?, 18.7%, -28.1%, ?
COc1ccc(COC(=O)N/C=C/c2ccco2)cc1
→ 2.4%[46.1 µM], 1.16µM*, nt, nt, 0.3%, -19.4%, 10.3%, nt
Cc1cccc(NC2=NC(=S)N(c3ccc(C(=O)O)cc3)C23CCCCC3)c1
→ 13.2%, 5.3%, -5.3%, 8.3%, -5.3%, 7.2%, -4.1%, -3.4%
Cc1cccc(CNc2ncnc3ccc(-c4cccnc4)cc23)c1
→ nt, nt, -7.7%, nt, -2.9%&-16.0%, nt, ?, 4.3%
CCN(CC(=O)Nc1c(F)cccc1F)C(=O)CCN1C(=O)c2cccc([N+](=O)[O-])c2C1=O
→ ?, 0.4%, nt, nt, -0.2%, 4.5%, -10.0%, nt

Next part (2 carried over from the part before).
Fields – Marburg entry inh, LASV entry inh, Cruzain Triton, NS1 function inh, SARS PLpro yeast, RE007 growth inh, StopGo reporter, Cruzain noTriton
Cc1cccc(CNc2ncnc3ccc(-c4cccnc4)cc23)c1
→ nt, nt, -7.7%, nt, -2.9%&-16.0%, nt, ?, 4.3%
CCN(CC(=O)Nc1c(F)cccc1F)C(=O)CCN1C(=O)c2cccc([N+](=O)[O-])c2C1=O
→ ?, 0.4%, nt, nt, -0.2%, 4.5%, -10.0%, nt
COC(=O)CSc1nc(N)c(C#N)c(CC(C)C)c1C#N
→ ?, -11.4%, -8.1%, -31.5%, -5.3%, 13.5%, 0.0%, -0.5%
CCNC(=O)C(Sc1ccccc1)c1ccccc1 (configuration not stated)
→ -8.3%, ?, 0.2%, 1.7%, 3.7%, -2.3%, 10.7%, -1.9%
CCOC(=O)Cn1nnc(-c2ccccc2)n1
→ 13.5%, 21.7%, 0.4%, -1.7%, -22.6%, -15.0%, 1.0%, 2.4%
CCCCN(C/C=C/c1ccccc1OC)Cc1ccccc1
→ ?, -16.2%, nt, 6.6%, -5.4%, -11.3%, -13.4%, nt
CCc1ccc(N2CC(C(=O)Nc3ccc(S(=O)(=O)NCC4CCCO4)cc3)CC2=O)cc1 (configuration not stated)
→ ?, -24.9%[46.1 µM], nt, 1.7%, 1.9%, 6.2%, 6.5%, nt
COCCCNC(=O)c1ccc(C)c(-n2c(C)nc3cccnc32)c1
→ nt, 7.2%[46.1 µM], -2.0%, nt, nt, nt, 3.3%, -4.5%
COc1ccc(NC(=O)C/C(C)=N/NC(=O)C(=O)NC(C)C)c(OC)c1
→ 16.9%[46.1 µM], 20.1%[46.1 µM], nt, 1.5%, 0.6%, -3.7%, 21.4%, nt
CCC(=O)c1ccc(N2CCN(C(=O)c3ccccc3)CC2)c(F)c1
→ nt, nt, nt, 2.7%, 4.4%, ?, -11.6%, nt
O=C(C1CCCO1)N(Cc1ccccc1)c1ccccc1 (configuration not stated)
→ 1.7%, 13.8%, -0.6%, -3.4%, 10.0%, -8.9%, 5.2%, -7.8%
CN(C)S(=O)(=O)c1ccc(S(=O)(=O)N2CCCC(C(=O)NC3CC3)C2)cc1 (configuration not stated)
→ -11.7%[46.1 µM], nt, nt, -2.4%, -1.2%, -10.1%, ?, nt
O=C(c1oc2ccccc2c1N1CCCCC1)N1CCCCC1
→ -0.8%, 38.9%[14.3 µM], -1.9%, -24.9%, 0.6%, 5.5%, 3.4%, -7.9%
CCOc1ccccc1NC(=O)Nc1cc2c(cc1N1CCCCC1)n(CC)c(=O)n2CC
→ nt, ?, -2.8%, nt, nt, nt, 0.0%, -2.8%
Nc1nnc(SCc2ccc(F)cc2)n1-c1ccccc1
→ -11.1%, -10.5%, -4.1%, 0.5%, -0.4%, -2.4%, -15.9%, -12.7%
CCN(c1ccccc1C)S(=O)(=O)c1nnc(NC(=O)c2ccccc2C)s1
→ nt, ?, -1.6%, nt, nt, nt, 0.0%, -1.7%
O=C(c1ccccc1)N1CCN(Cc2ccccc2)CC1
→ -3.0%, -24.9%, 2.6%, 5.8%, -12.3%, 11.3%, nt, -8.3%
COc1ccc(-c2cn3c(n2)sc2cc(C(=O)Nc4ccc(F)cc4Cl)ccc23)cc1
→ ?, nt, -0.8%, nt, nt, nt, 1.9%, 6.8%
Cc1ccc(-n2c(C)c(C)c3c(N)ncnc32)cc1
→ 15.9%[46.1 µM], 12.7%[46.1 µM], nt, -16.2%, 0.3%, -20.1%, -8.5%, nt
Cc1ccc(OCC(=O)Nc2ccc(C(=O)OCc3cc(=O)n4ccsc4n3)cc2)cc1C
→ nt, -8.9%[46.1 µM], -0.8%, nt, nt, nt, 35.5µM*, -0.3%
Cn1c(SCc2ccc([N+](=O)[O-])cc2)nnc1-c1cccnc1
→ -11.4%[46.1 µM], 8.9%[46.1 µM], nt, nt, 0.1%, -2.1%, -6.3%, nt
CCOCCCNC(=O)C1CCN(S(=O)(=O)N(CC(C)C)CC(C)C)CC1
→ 1.0%, 5.2%, 8.7%, 0.5%, -0.7%, 2.5%, -7.7%, ?
CCOC(=O)COc1c(/C=N\OC)cc(Cl)cc1OC
→ 5.6%[46.1 µM], 15.3%, nt, nt, -8.6%, 1.7%, -21.6%, nt
Cc1ccc(-n2nc(C)c3c2OC(N)=C(C#N)C3c2ccoc2)cc1 (configuration not stated)
→ 0.3%&0.3%, -2.8%, -0.2%, 2.51µM*, 4.9%, -8.9%, 50.8%[activator], -5.7%
CCCN1CCC[C@@H](c2cccc(C#N)c2)C1
→ ?, nt, -4.1%, -6.6%, nt, nt, nt, 4.2%
CS(=O)(=O)N1CCC(C(=O)NCc2ccc(Cl)cc2Cl)CC1
→ 0.0%[46.1 µM], -0.4%, nt, nt, 0.6%, 11.3%, -1.9%, nt
Cc1ccc(C)c(N(Cc2ccccc2F)S(C)(=O)=O)c1
→ -25.5%, ?, 1.2%, 7.0%, -14.8%, 19.4%, -14.1%, -13.0%
Cc1cc(C)n(-c2ccc(Cl)c(C(=O)Nc3ccc(OC(F)(F)F)cc3)n2)n1
→ 1.2%, 0.6%, -2.4%, -0.7%, 17.5%, 4.2%, 7.3%, ?
Cc1onc(-c2c(Cl)cccc2Cl)c1C(=O)N1CCN(c2ncccn2)CC1
→ nt, nt, nt, -4.3%, -0.9%, -2.7%, -17.3%, nt
CC(C)[C@H](NS(=O)(=O)c1ccccc1)C(=O)OCC(=O)Nc1cccc(S(N)(=O)=O)c1
→ -1.8%, -12.9%, nt, nt, -0.9%, -2.2%, 2.6%, nt
CCC(=O)NC(=S)Nc1cccc(NC(=O)c2ccc(Cl)cc2Cl)c1
→ 0.2%, -14.6%, -15.0%, 8.9%, 0.9%, -0.3%, -19.2%, 2.8%
COC(=O)C(c1ccccc1)C(C(=O)OC)c1ccccc1 (configuration not stated)
→ nt, nt, nt, 9.5%, 1.1%, 2.6%, -11.6%, nt
Cc1nnc(SCc2ccc([N+](=O)[O-])cc2)o1
→ 9.5%[46.1 µM], -9.6%, nt, 6.8%, -1.0%, -10.9%, 20.6%, nt

Compound activity deposited in PubChem BioAssay by National Center for Advancing Translational Sciences (NCATS).
